BasE inh = BasE siderophore biosynthesis inhibition; purified BasE, fluorescence polarization binding displacement; inhibition, % (test concentration not listed); hit rate 0.1% among 84,000; AID 485350;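 active = both replicates above 25% with normal brightness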;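 note: 0% = negative plate control signal and 100% = positive plate control signal; stock transfer was 100 nL into about 30 µL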
LANA-nucl inh = LANA-nucleosome interaction inhibition; FITC-LANA1-23 / chicken nucleosome fluorescence polarization; active compounds read low; z-score (test concentration not listed); hit rate 0.3% among 51,000; AID 720717;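 active = both repeat wells score below -2 in polarization z-score versus plate sample wells, excluding overly bright wells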;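 note: 100 nL library stock added to about 30 µL; numbers are from one replicate; some results filed as inactive read as strong as hits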
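Test system: purified chicken nucleosomes with FITC-labelled LANA N-terminal peptide (1-23); Input: 240 nM purified chicken nucleosomes (480 nM peptide binding sites), final; Medium: TEN-BT buffer, pH 7.5; Timing: 10–45 min, room temperature; Technique: fluorescence polarization, 480 nm excitation, 535 nm parallel and perpendicular emission; Replication: duplicates.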
The depositor's hits bear a star; . = no result given; & = joins results of further samples. Not all compounds are listed. The share of hits here may be higher or lower than overall.

Every second line gives: BasE inh | LANA-nucl inh
O=C1CN(C2CCS(=O)(=O)C2)C(=S)N1c1ccccc1 (configuration not stated)
  1.1 | .
COc1ccc(CCN(C)C(=O)Cn2nnc(-c3ccccc3Br)n2)cc1OC
  1.0 | .
O=S(=O)(Nc1nc(SCc2ccc(Cl)cc2)n[nH]1)c1cccs1
  -1.3 | 0.251
O=C(/C=C/c1ccccc1)Nc1cccnc1Oc1ccc(F)cc1
  4.1 | .
COCCn1c(=NC(=O)CCOc2ccccc2)sc2cc(OC)ccc21
  2.3 | 0.845
CC1CCN(CC(=O)Nc2ccc(C(=O)O)cc2)CC1
  -0.7 | 0.925
CN1CCC(OC(c2ccccc2)c2ccccc2)CC1
  -1.5&-2.5 | 0.34&0.0645&-0.451
Cn1nccc1C(=O)Nc1ccc(Cl)cc1
  -1.1 | .
O=C(COC(=O)C1COc2ccccc2O1)c1ccccc1 (configuration not stated)
  1.1 | .
Cc1ccc2c(c1)CN1CN2Cc2cc(C)ccc21
  -0.1 | 0.233

(listing goes on)
Every second line gives: BasE inh | LANA-nucl inh
CCOc1ccc(C2=CSC3=NCCN23)cc1Cl
  0.3 | -0.289
CCn1c2ccccc2c2cc(NC(=O)C(C)N3CC(C)OC(C)C3)ccc21 (configuration not stated)
  1.5 | .
CCc1cc(=O)oc2c(C)c(OC3CCCCC3=O)ccc12 (configuration not stated)
  0.4 | -1.24
Cc1ccc(-c2cc(=O)c(=O)[nH][nH]2)cc1
  0.0 | -0.611
O=C(NNc1ncccc1-n1cccc1)Nc1ccc(OC(F)(F)F)cc1
  2.6 | -0.321
CCN(Cc1nc(-c2ccc(C)cc2)no1)C(=O)NC(C)(C)C
  1.4 | -0.15
CCn1c(=O)c2ccccc2n(CC(=O)N2CCCCC2C)c1=O (configuration not stated)
  0.5 | -1.19
O=C(O)C1CCN(/C=C/C(=O)C(F)(F)F)CC1
  -0.3 | .
CC(C)NC(=O)c1ccccc1N
  -1.4 | .
O=c1cc(-c2ccccc2)oc2cc(O)cc(O)c12
  -0.2&0.9 | -0.607&-0.286

The listing continues.
Every second line gives: BasE inh | LANA-nucl inh
O=C1/C(=C/C2=Cc3ccccc3OC2)SC(=S)N1C1CCS(=O)(=O)C1 (configuration not stated)
  -13.8 | 1.93
CC(C)CNC(=S)N1CCC(c2nc(-c3ccc(F)cc3)no2)CC1
  -0.3 | -0.566
O=S(=O)(c1ccc(Cl)cc1)N1CCC(n2cccc2)CC1
  -0.3 | .
O=C(Cn1cnc2c(oc3ccccc32)c1=O)Oc1ccccc1Cl
  -0.1 | .
CCc1cc(=O)oc2c3c(ccc12)OCN(Cc1ccccc1)C3
  -1.2 | 0.0025
FC(F)(F)Oc1ccc(-n2nnnc2SCCN2CCCCC2)cc1
  -1.8 | .
CC(=O)Nc1cccc(NC(=O)CSc2ncc(C(=O)Nc3ccccc3)c(=O)n2C)c1
  -3.0 | 0.141
CCN=C1NC(=O)C(CC(=O)Nc2ccc(Oc3ccccc3)cc2)S1 (configuration not stated)
  -0.4 | .
O=c1[nH]c(=S)[nH]c2c1CCCC2
  -1.6 | 0.0355
O=C1CC(c2ccccc2)C(=O)N1c1cc(Cl)cc(Cl)c1 (configuration not stated)
  -0.4 | .

Next compounds.
Every second line gives: BasE inh | LANA-nucl inh
Cc1cc(C)c(S(=O)(=O)NCC(=O)N2CCc3ccccc3C2)c(C)c1
  -1.9 | 0.021
Cc1cccc(N2CCN(C(=O)CSCc3c(C)noc3C)CC2)c1C
  2.3 | .
CC(OC(=O)c1cccn1C)C(=O)Nc1ccccc1C#N (configuration not stated)
  1.8 | .
O=C(COCc1cc(-c2ccco2)on1)NC1CCCC1
  -2.1 | 0.772
Cc1c(/C=N/N=c2\sc3ccccc3n2C)n(C)n(-c2ccccc2)c1=O
  2.8 | .
O=C(CSc1nc2cc(Cl)ccc2s1)NC1CCS(=O)(=O)C1 (configuration not stated)
  11.8 | .
Cc1ccc(CN(C)C(=O)C2CC(=O)N(c3ccc4c(c3)OCCO4)C2)o1 (configuration not stated)
  5.3 | .
O=C(c1ccco1)N1CCCC(C(F)(F)F)C1 (configuration not stated)
  -0.1 | .
c1ccn2c(c1)nc1nc3nonc3nc12
  16.2 | -1.23
CC(C)n1c(CCC(=O)O)ccc1-c1ccc(Br)cc1
  6.7 | -0.439

Other structures follow.
Every second line gives: BasE inh | LANA-nucl inh
CCC(=O)Nc1nc(-c2ccc(C)c(C)c2)cs1
  -0.9 | 0.357
CC1CNC(=O)NC1=O (configuration not stated)
  -0.5 | .
Cc1ccc(CC(C#N)C(N)=C(C#N)C#N)cc1 (configuration not stated)
  2.5 | .
COCCN1Cc2cccc(C(=O)N3CCN(c4cccc(C)c4)C(C)C3)c2C1=O (configuration not stated)
  1.8 | -0.627
CC(NC(=O)C1CCCN(C(=O)c2cc3sccc3n2C)C1)c1ccccc1 (configuration not stated)
  1.1 | 0.673
Cn1ccnc1Sc1ncnc2sccc12
  -0.5 | .
Cc1ccc(C)c(Cn2c(=O)n(CCCC(=O)NCc3ccco3)c(=O)c3sccc32)c1
  -0.8 | -0.993
c1ccc([C@H]2CN3CCSC3=N2)cc1
  -2.2&-1.2 | 1.22&-0.28&-0.723&0.152
CC(C)NC(=O)C(C)Oc1ccccc1 (configuration not stated)
  0.2 | 1.02
O=C(O)c1cccc(-n2cccc2C=C2C(=O)c3ccccc3C2=O)c1
  2.4 | .

Arranged by molar mass (ascending): part of the list above
Every second line gives: BasE inh | LANA-nucl inh
Cc1ccc(CC(C#N)C(N)=C(C#N)C#N)cc1 (configuration not stated)
  2.5 | .
Cn1ccnc1Sc1ncnc2sccc12
  -0.5 | .
CCC(=O)Nc1nc(-c2ccc(C)c(C)c2)cs1
  -0.9 | 0.357
Cc1ccc(C)c(Cn2c(=O)n(CCCC(=O)NCc3ccco3)c(=O)c3sccc32)c1
  -0.8 | -0.993

(continued)
structure | BasE inh | LANA-nucl inh
O=C(O)C1CCCCC1C(=O)Nc1nncs1 (configuration not stated) | -2.1 | 0.954
CCOC(=O)C1=C(O)/C(=C/c2ccco2)SC1=Nc1ccc(F)cc1 | -0.9 | 0.272
O=C(/C=C/c1ccc(S(=O)(=O)N2CCOCC2)cc1)NC(=S)NC1CC1 | 1.3 | .
COc1cc(OC)c(OC)cc1CN1CCN(S(=O)(=O)c2ccc(NC(C)=O)cc2)CC1 | 2.4 | -0.329
CC1(C)OC(=O)C(=CNC(CCC(=O)O)C(=O)O)C(=O)O1 (configuration not stated) | 1.7 | 0.538
CC1C(=O)N2CCCc3cc(S(=O)(=O)N4CCc5ccccc54)cc1c32 (configuration not stated) | -1.1 | -1.69
CCC(C)c1ccc(NC(=O)CN(CC)Cc2nc3ccccc3c(=O)[nH]2)cc1 (configuration not stated) | 0.5 | .
Cc1ccc(S(=O)(=O)c2nc(S(=O)(=O)c3ccccc3)sc2N2CCCC2)cc1 | 0.6 | -0.3
CCC(C)(C)NS(=O)(=O)c1cccs1 | 0.6 | 0.52
Cc1cccc(OCCNC(=O)c2sc3nc[nH]c(=O)c3c2C)c1 | -0.6 | .
CCOC(=O)c1cc(Cl)c(C(=O)OCC)cc1Cl | 2.0 | .
CC1=CC(C)=NCCN1 | 6.8 | -0.798
CCCn1c(C(C)O)nc2ccccc21 (configuration not stated) | -0.7 | 0.169
CCOC(=O)c1cc2occc2n1CC(=O)N1CCCc2ccccc21 | 3.4 | -1.1
N/C(=N\OC(=O)NC1CCCCC1)c1ccc(Cl)cc1 | -0.2 | -1.18
COC(=O)Cn1c(=NC(=O)c2ccc(S(=O)(=O)N3CCCC3)cc2)sc2cc(NC(C)=O)ccc21 | -0.3 | -0.12
Cc1noc(C)c1NC(=O)NC1CCCc2ccccc21 (configuration not stated) | -1.0 | -0.0975
O=C(NCCCO)c1nc2ccccc2s1 | 0.2 | -0.041
C/C(=N\NC(=O)c1ccccn1)c1ccc(OC(F)F)cc1OC(F)F | -1.4 | .
Cc1noc(C)c1COC(=O)c1cccc(S(=O)(=O)N2c3ccccc3CC2C)c1 (configuration not stated) | 0.5 | .

Compound profiles, as listed above. Order of values: BasE inh, LANA-nucl inh
Results for CCOC(=O)c1cc(Cl)c(C(=O)OCC)cc1Cl → 2.0, .
Results for Cc1cccc(OCCNC(=O)c2sc3nc[nH]c(=O)c3c2C)c1 → -0.6, .
Results for C/C(=N\NC(=O)c1ccccn1)c1ccc(OC(F)F)cc1OC(F)F → -1.4, .
Results for CC1(C)OC(=O)C(=CNC(CCC(=O)O)C(=O)O)C(=O)O1 (configuration not stated) → 1.7, 0.538
Results for O=C(O)C1CCCCC1C(=O)Nc1nncs1 (configuration not stated) → -2.1, 0.954

Other records.
structure | BasE inh | LANA-nucl inh
Cc1ccc(-c2nnc(SC(C)c3ccccc3)n2N)cc1 (configuration not stated) | 4.0 | .
O=C(Nc1cccnc1)c1ccccc1Oc1ccccc1 | 3.3 | 0.0035
CCOC(=O)c1noc(NC(=O)Cc2ccccc2OC)c1-c1ccccc1 | 1.2 | .
CCOc1cc2c(cc1CNC(=O)c1cccnc1)OC(C)C2 (configuration not stated) | -0.3 | .
Fc1ccc(CN2CCCN(Cc3ccc(F)cc3)C2c2csnn2)cc1 | . | -0.763
Cc1ccccc1NS(=O)(=O)c1ccc2[nH]cc(C(=O)NCCCN3CCOCC3)c(=O)c2c1 | -7.3 | 0.32
CN(CC(=O)Nc1sccc1C#N)C1CCCCC1 | -0.8 | .
CCc1nnc(NC(=O)C2c3ccccc3C(=O)N(C)C2c2cccs2)s1 (configuration not stated) | 0.8 | 0.0765
Cc1c(C(=O)Cc2c(O)c3ccccc3oc2=O)sc2nc(C(F)(F)F)nn12 | -1.2 | .
C/C(=C/C(=O)C(F)(F)F)N1CCN(S(=O)(=O)/C=C/c2ccccc2)CC1 | -1.5 | .
COc1ccc(P(=O)(CC(=O)O)c2ccc(OC)cc2)cc1 | -0.9 | 1.94
CC1(C)Cc2cccc(Oc3ccc(S(=O)(=O)N4CCCC4)cn3)c2O1 | 0.7 | .
S=C1NCN(C(Cc2ccccc2)c2ccccc2)CN1 (configuration not stated) | 1.3 | .
CC1(C)Cc2cccc(OCC(=O)OCC(=O)N3CCN(c4ccccc4)CC3)c2O1 | 0.7 | .
CCC1C(=O)NCCN1C(=O)/C=C/c1ccccc1 (configuration not stated) | -3.7 | 2.35
COC(=O)c1cc(CSc2nnc(-c3cccs3)n2N)oc1C | 0.8 | .
COc1ccc(CC(CC(=O)O)C(=O)Nc2ccccc2)cc1 (configuration not stated) | 0.4 | .
C=CCSc1nc2ccsc2c(=O)n1-c1ccccc1 | . | -0.329
FC(F)(F)c1cccc(NC(=S)N2CCCC2)c1 | 1.5 | .
Cc1ccc(C(=O)Oc2cc(C)cc(OC(=O)c3ccc(C)cc3)c2)cc1 | 2.7 | .

The last three records of the section before are carried over, then new ones follow:
structure | BasE inh | LANA-nucl inh
C=CCSc1nc2ccsc2c(=O)n1-c1ccccc1 | . | -0.329
FC(F)(F)c1cccc(NC(=S)N2CCCC2)c1 | 1.5 | .
Cc1ccc(C(=O)Oc2cc(C)cc(OC(=O)c3ccc(C)cc3)c2)cc1 | 2.7 | .
COC(=O)Cn1c(Cl)nc2c1c(=O)n(C)c(=O)n2C | 0.7 | .
Cc1ccc(S(=O)(=O)N2CC=C(c3ccc(F)cc3)CC2)cc1 | -2.3 | 1.36
CC1(C)Cc2c(C#N)c(NCC3CCCO3)nc(-c3ccccc3)c2CO1 (configuration not stated) | 0.0 | .
CCOC(=O)/C=C1\SCC(=O)N1CCOC(=O)c1cc2c(C)nn(-c3ccccc3)c2s1 | 22.1 | .
CCOC(=O)c1cc2occc2n1Cc1c(F)cccc1Cl | -7.5 | 0.494
CSc1sc(C#N)c2c1/C(=N/OC(C)=O)CCC2 | 1.9 | 0.0485
Cc1ccc2nc(SCC(=O)c3cc4c5c(c3)CC(=O)N5CCC4)[nH]c2c1 | 1.8 | .
Cc1cc(S(=O)(=O)Nc2nc(CN3CCOCC3)nc3sc4c(c23)CCC4)ccc1F | -1.1 | .
Cc1ccc(/C(=C\CN2CCCC2)c2ccccn2)cc1 | -2.9&-3.1 | 0.0595&1.21&-0.692&-0.52
N#CCc1ccno1 | -0.2 | .
C=CCNC(=O)C1CC(c2ccc(F)cc2)=NO1 (configuration not stated) | 2.1 | -1.31
CN(C)C(=O)COc1ncnc2scc(-c3ccccc3)c12 | -1.1 | .
CN1/C(=N\N)c2cccc3cccc1c23 | -5.6 | 1.14
CCOc1ccccc1NC(=S)N1CCC(NC(=O)c2ccco2)CC1 | -0.1 | -0.865
COC(CNC(=O)c1c[nH]c2ccc(S(=O)(=O)N(C)c3ccccc3C)cc2c1=O)OC | -3.1 | 0.158
CNC(=O)CN(c1ccc2c(c1)OCO2)S(C)(=O)=O | 0.7 | -0.119
Cn1cnnc1SCc1cc(=O)c(OCC(=O)N2CCCCC2)co1 | 1.2 | -0.405
CC1(C)CC2(CC(C)(C(=O)CSc3nc4ccccc4s3)OC2=O)C(=O)O1 (configuration not stated) | 0.3 | .
Cc1ccc(CNC(=O)c2ccc(S(=O)(=O)N3CCCC3)cc2)cc1 | -3.4 | .
O=C(COc1ccccc1Br)NC1CCCC1 | 2.0 | .

Further results
structure | BasE inh | LANA-nucl inh
N#CC1=C2C=CC=CN2CC1=O | 3.5 | .
COCCn1c(SCc2ccc(C(=O)OC)o2)nc2ccccc2c1=O | -0.5 | .
COCCSc1ccccc1C(=O)N1CCCC1 | -0.5 | 0.154
COC(=O)c1sc(N)c(C(=O)OC)c1CSc1nncn1-c1ccccc1 | 0.4 | .
O=C1/C(=C\c2ccco2)N=C(SCn2nnc3ccccc3c2=O)N1c1ccc(OC(F)F)cc1 | -0.4 | .
COc1cccc(C(=O)CN2C(=O)/C(=C/c3ccco3)N=C2c2ccccc2)c1 | 0.1 | -0.103
CC(=O)N1C(=O)C2(OCC3(CO2)COC2(OC3)C(=O)N(C(C)=O)c3ccccc32)c2ccccc21 (configuration not stated) | 2.4 | -0.095
Cc1nc(SCC(=O)O)oc1C | -1.6 | 0.795
